# ClpP mod: qHTS Assay for Activators of ClpP; ATP-dependent Clp protease proteolytic subunit (Bacillus subtilis (strain 168)), P80244; purified B. subtilis ClpP, FRET peptide cleavage, 20 min; Potency, µM (titrated, usually from 57.5 µM), for the others: at the highest dose activity change, negative = active; 1.9% of 340,000 active; AID 651965, 2013; active = well fitted falling curve with a large enough effect; inconclusive = small, poorly fitted or top-dose-only effect; inactive = no such curve, though single readings can be large or run the other way; also: potency is read from the fitted curve at half-maximal effect; the source files actives as falling curves though it sought activators and does not explain the sign; nearly all actives have a fitted effect of over 65% in size; many hits overshoot -100%
# Target sequence (P80244 whole entry, looked up): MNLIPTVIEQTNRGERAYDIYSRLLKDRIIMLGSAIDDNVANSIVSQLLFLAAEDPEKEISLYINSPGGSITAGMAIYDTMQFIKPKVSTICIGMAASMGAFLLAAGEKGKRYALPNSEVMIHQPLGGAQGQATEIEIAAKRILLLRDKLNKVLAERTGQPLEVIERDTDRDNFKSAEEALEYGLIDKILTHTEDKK
#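 ClpP 10 microg/mL final, pH 8 Tris/KCl buffer with BSA, glycerol, Tween-20; compound pinned in; FRET-FV substrate; RT 20 min; Ex320/Em430; ΔFRET vs ADEP 5.8 microM, DMSO, no enzyme.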
# gsp agonist: activates gsp, the McCune-Albright syndrome mutation. gsp mutant cells, cAMP HTRF, 30 min; control for the full effect not named in the record. Potency, µM (doses to about 76.9 µM), without a hit: at the top dose activation (cAMP increase), most hits filed as activators. 0.13% of 340,000 active; active = well fitted activation curve with a large enough effect; inconclusive = small, poorly fitted or top-dose-only effect, or another doubt; inactive = no such curve, though single readings can be large or run the other way; cell line not stated here;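 also: phosphodiesterase inhibitor Ro 20-1724 added with compounds to block cAMP breakdown; potency is read from the fitted curve at half-maximal effect; nearly all actives have a fitted effect of over 60% in size; about a fifth of the inactives were tested at one dose only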
#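 Cells in DMEM/10% FBS with G418 were pretreated with compounds in DMSO plus […] (300 uM stock) for 30 min at 37C. cAMP was measured by HTRF (cAMP-d2 plus anti-cAMP antibody-K) after 30 min at room temperature.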
# TRPV1 potentiator: human TRPV1 potentiation; Q8NER1; potentiation, % at 8.33 µM; AID 540277; TRPV1-expressing cells, Fluo-8 calcium influx, capsaicin EC20 potentiation; host cell line not named in the record; control for the full effect not named in the record; 0.02% of 320,000 active; active means potentiation above 80%; inconclusive means 30% to 80%; inactive means below 30%; also: 0% is about no effect
# Target sequence (Q8NER1 whole entry, looked up): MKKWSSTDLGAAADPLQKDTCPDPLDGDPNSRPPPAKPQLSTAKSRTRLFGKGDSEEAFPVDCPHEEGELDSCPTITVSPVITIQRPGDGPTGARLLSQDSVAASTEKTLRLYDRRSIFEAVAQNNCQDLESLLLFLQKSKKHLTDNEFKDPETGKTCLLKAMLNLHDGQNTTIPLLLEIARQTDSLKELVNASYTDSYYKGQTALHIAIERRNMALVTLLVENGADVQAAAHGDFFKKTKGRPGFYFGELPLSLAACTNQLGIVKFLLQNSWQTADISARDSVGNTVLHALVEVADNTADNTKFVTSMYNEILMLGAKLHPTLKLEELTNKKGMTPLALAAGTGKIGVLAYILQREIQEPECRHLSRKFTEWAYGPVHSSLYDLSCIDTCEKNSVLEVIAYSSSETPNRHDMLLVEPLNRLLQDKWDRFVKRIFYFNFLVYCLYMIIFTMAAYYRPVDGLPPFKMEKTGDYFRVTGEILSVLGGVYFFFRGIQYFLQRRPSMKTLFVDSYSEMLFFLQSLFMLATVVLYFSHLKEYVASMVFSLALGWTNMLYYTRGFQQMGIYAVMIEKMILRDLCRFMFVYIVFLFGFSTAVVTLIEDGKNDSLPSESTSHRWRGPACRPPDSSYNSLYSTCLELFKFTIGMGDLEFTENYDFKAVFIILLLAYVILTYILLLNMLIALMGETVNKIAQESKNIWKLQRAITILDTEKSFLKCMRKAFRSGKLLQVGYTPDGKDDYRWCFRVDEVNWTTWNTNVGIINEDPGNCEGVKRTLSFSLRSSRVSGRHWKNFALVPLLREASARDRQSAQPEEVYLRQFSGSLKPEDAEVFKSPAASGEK
#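 Fluo-8 calcium influx in TRPV1-expressing cells, kinetic read (ex 480/em 520 nm). Compound added and read 3 min for agonist activity, followed by capsaicin at EC20 final and 2 min further read for enhancement.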
# Sfp PPTase inh: blocks B. subtilis Sfp PPTase activity; Q9F4F7; Biochemical Sfp PPTase activity, qHTS; Potency, µM, for the others: max response, negative = inhibition, actives largely listed as inhibitors; 3.5% of 310,000 active; AID 1490; active = well fitted inhibition curve with a large enough effect; inconclusive = small, poorly fitted or top-dose-only effect, or another doubt; inactive = no such curve, though single readings can be large or run the other way;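 also: the enzyme is Sfp with the accession as filed and its product quenches rhodamine fluorescence; potency is read from the fitted curve at half-maximal effect; 0% = enzyme reaction without inhibitor and -100% = no enzyme wells; top concentration of the series not given in the record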
#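 Reaction rates are the 30-min fluorescence difference (ex 525, em 598 nm) in wells containing 15 nM Sfp, 5 uM rhodamine-CoA and 12.5 uM BHQ-2-YbbR at pH 7.6 with 10 mM MgCl2.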
# CtBP-E1A inh: inhibitors of CtBP/E1A interaction | AlphaScreen GST-E1A/His-CtBP binding, 1536-well; active compounds read low; control for the full effect not named in the record | activity change, % (no concentration beside the values) | 0.49% of 340,000 active; in the data active means activity change below about -65%; inconclusive means about -30% to -65%; inactive means above about -30%; also: % is scaled to controls: 0 for no effect and ±100 for the full control effect
#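 GST-E1A and His-tagged CtBP (125 nM each as 5X stock) were preincubated with pin-transferred compound for 2 h at 37 °C in the dark, then glutathione donor and nickel acceptor beads were added for 1 h before AlphaScreen reading.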
# gsp antag: antagonists of gsp mutant (McCune-Albright syndrome); gsp-mutant cells, cAMP HTRF, 30 min; control for the full effect not named in the record; Potency, µM (doses to about 76.9 µM), without a hit: top-dose activity change, negative = inhibition, actives largely listed as inhibitors; 0.4% of 340,000 active; active = falling curve of any shape with a large fitted effect; inconclusive = falling curve, mostly with a smaller effect; inactive = flat or rising curve; cell line not stated here;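 also: intracellular cAMP measured with PDE inhibitor Ro 20-1724 present during compound exposure; potency is read from the fitted curve at half-maximal effect; % is scaled to controls: 0 for no effect and ±100 for the full control effect; nearly all actives have a fitted effect of over 65% in size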
#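 HTRF cAMP read-out (cAMP-d2 plus anti-cAMP antibody-K in lysis buffer, 30 min RT). Before lysis, cells are exposed to compounds with […] for 30 min at 37C in DPBS containing Ca/Mg, BSA and Tween 20.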
# Menin MLL FP FL: displaces fluorescein MLL peptide from human menin; Fluorescence polarization, fluorescein-MLL peptide displacement from menin; 290,000 tested, under 10 active; FP activity change, % at 61.4 µM; AID 1766; inconclusive = falling polarisation curve, or a change in total fluorescence; inactive = total fluorescence flat and polarisation flat or rising; no compound was filed as active; the % refers to the polarisation; negative = inhibition;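 also: % of control where 0% means no effect; inhibitors lower the polarisation; unlabelled MLL peptide was the positive control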
# The depositor's hits bear a star; ? = inconclusive; . = not tested or not shown; & = joins results of further samples; [ ] = remark or other dose.
SMILES,ClpP mod,gsp agonist,TRPV1 potentiator,Sfp PPTase inh,CtBP-E1A inh,gsp antag,Menin MLL FP FL
O=C1C=C(Nc2ccccc2)c2ccccc2C1=O,.,9%,-1,2%,-20,?,4.3
O=C(CSc1ccc(F)cc1)Nc1ccc(C2SCCS2)cc1,.,-10%[15.4 µM],-10,4%,5,9%,2.5
Cc1ccc([N+](=O)[O-])cc1-c1ccc(/C=C(\C#N)c2[nH]nc(N)c2C#N)o1,-1.5%,8%,-8,-20%,?,0%,4.0
Cn1nc(C(F)(F)F)c2cc(C(=O)N3CCOCC3)sc21,.,-36%[inhibitor],-4,-7%,0,7%,-1.8
O=C(Nc1ccc(C(=O)c2ccccc2)cc1)c1ccccc1,-0.7%,0%[15.4 µM],5,-1%,9,40µM*,7.9
NC1=NC(=O)S/C1=C\c1ccc(F)cc1,1.1%,1%[15.4 µM],1,3%,9,-4%,-1.8
NC(=O)c1cccn1Cc1ccccc1Cl,1.1%,-19%,4,-2%,13,11%,3.2
CCc1cccc2c1NC(=O)C21OCCO1,-1.2%,2%,0,-2%,.,6%,0.3
O=C(c1ccc(S(=O)(=O)Cc2ccccc2F)c([N+](=O)[O-])c1)N1CCCC1,.,-8%[15.4 µM],3,22%,-2,-20%,0.7
CCC1C(=O)NCCN1C(=O)c1ccccc1OC1CCN(S(C)(=O)=O)CC1 (stereo not given),-1.6%,18%,-4,3%,.,4%,0.4
Cc1ccc(N(C)C(=O)N2CCN(S(=O)(=O)c3ccc(C)cc3)CC2)cc1,-2.0%,39%,-13,-11%,0,-5%,-1.8
Cc1cc(-c2nc3ccccc3[nH]2)ccc1N,3.8%,9%,-1,0%,-4,-24%,-0.8
CC(C)CN(CCCNC(=O)CC1Oc2ccccc2NC1=O)CC(C)C (stereo not given),-1.2%,5%,-1,0%,10,0%,2.6
CCc1nc2ccccc2[nH]c1=O,.,14%[15.4 µM],3,12%,6,9%,0.4
CC(C)CCCN1CCN=C1N(C)C,-0.7%,?,25,10%,5,7%,4.8
Cc1ccc(C)c(CNC(=O)Nc2ccccc2)c1,.,4%,-16,4%,5,-5%,-0.4
COc1ccccc1CNC(=O)C1Cc2cc(S(=O)(=O)N3CCCCC3)ccc2N1C(C)=O (stereo not given),-2.3%,10%,14,7%,-1,-6%,.
O=C(NC(c1ccccc1)c1ccccn1)c1cccc([N+](=O)[O-])c1 (stereo not given),.,-4%[15.4 µM],-13,10%,-2,3%,0.1
O=C(C1CC(c2ccccc2O)=NO1)N1CCc2ccccc2C1 (stereo not given),-0.2%,16%,-12,-9%,9,-15%,0.2
CCn1cc(CNC(=S)Nc2cccc3ccccc23)cn1,-0.4%,13%,-7,-19%,3,4%,6.1
COc1ccc(NC(C)=O)cc1NC(=O)CN1CCN(CC(=O)Nc2ccccc2Cl)CC1,-1.4%,6%,0,0%,1,-22%,-0.3
COc1ccc(N2CCN(C(=O)c3ccc(NS(=O)(=O)c4ccc(F)c(F)c4)cc3)CC2)cc1,-5.2%,3%,9,3%,-13,?,2.4
COc1ccccc1C(=O)N/N=C(\C)CC(=O)Nc1ccccn1,.,-4%,-2,0%,-25,-1%,2.6
COC(=O)c1ccccc1NCc1cc(=O)oc2cc(O)c(O)cc12,.,12%,9,-5%,2,-12%,-0.7
CC1CCc2sc(C(=O)Nc3nnc(SCc4ccc(F)cc4)s3)cc2C1 (stereo not given),?,-13%,-5,4%,-2,-3%[15.4 µM],5.0
SMILES,ClpP mod,gsp agonist,TRPV1 potentiator,Sfp PPTase inh,CtBP-E1A inh,gsp antag,Menin MLL FP FL
OCCNc1cc(Cl)ncn1,0.4%,-32%[inhibitor],1,-6%,0,-12%,0.1
O=C(Nc1cc(C(F)(F)F)ccc1Cl)c1cccc(N2C(=O)CCC2=O)c1,-2.7%,-2%,7,13%,-4,1%,.
COc1ccccc1/C=C/C(=O)OCC(=O)Nc1c(C)nn(-c2ccccc2)c1C,3.9%,-12%,7,.,.,-20%,.
CC(NS(=O)(=O)c1ccc(Br)cc1)C(=O)NCCc1ccccc1 (stereo not given),-1.3%,-26%,20,-16%,6,11%,2.7
COc1ccc(N2C(=O)/C(=C3/C=CC=CN3C)SC2=S)cc1,-18%,2%,-12,50µM*,7,-1%,10.0
CCCc1nc2ccc(N)cc2c(=O)n1Cc1ccccc1Cl,-0.8%,7%[15.4 µM],1,3%,6,-12%,-0.6
c1ccc(CCNc2ncnc3c2nnn3Cc2ccccc2)cc1,-0.1%,3%,?,15%,4,5%,1.0
O=C1NC(=O)C(c2ccccc2)N1 (stereo not given),2.1%,-3%[15.4 µM],.,.,4,2%,.
CC1CCCC(C)N1C(=O)COC(=O)C1CCN(S(=O)(=O)c2c(Cl)cccc2Cl)CC1 (stereo not given),0.9%,-8%,9,.,2,0%,.
CN(CCCC(=O)Nc1ccccc1)S(=O)(=O)c1ccc(Cl)cc1,-7.4%,-6%,-35,14%,-21,-6%,-1.1
Cc1cccc(C(=O)N2CC(=O)Nc3ccc(F)cc3C2c2ccc(F)cc2)c1 (stereo not given),.,-5%,-18,-7%,7,-11%,2.0
OCCCNc1nc(-c2ccc(Cl)cc2)nnc1-c1ccccc1,2.1%,11%,-7,-2%,-16,11%,0.3
O=C1c2ccc(Oc3ccc([N+](=O)[O-])cc3)cc2C(=O)N1CCCO,.,-30%,?,11%,5,0%,-1.4
O=C(Nc1ccc2c(c1)OCO2)Nc1ccc(F)cc1F,2.3%,?,-8,-8%,1,1%,-0.2
Cc1cccc(-n2cnc(C(=O)N3CCN(C)CC3)c2)n1,0.8%,0%[15.4 µM],-2,-2%,4,-4%,0.8
CC(=O)c1ccc(NC(=O)CSc2nccn2CCc2ccccc2)cc1,0.7%,-28%,-16,0%,-3,-17%,7.4
c1ccc2c(NC3C4CC5CC(C4)CC3C5)nc(N3CCOCC3)nc2c1 (stereo not given),.,18%[15.4 µM],2,-1%,22,-30%,-0.3
Cc1ccc2nc(N3CCN(CCO)CC3)nc(-c3ccccc3)c2c1,-5.5%,-2%,5,-13%,-1,12%,-3.3
CCOC(=O)N1CCC(n2c(SCC(=O)c3ccccc3)nc3ccsc3c2=O)CC1,-3.6%,16%,-30,5%,-5,17%,4.0
COC(=O)c1cc(C)nc2c1c(C)nn2-c1ccccc1,-7.7%,15%,5,.,.,-12%,.
CC(=O)OC12CC3CC(C1)C(=NO)C(C3)C2,-0.8%,-9%,5,28%,1,5%,1.2
O=C(COC(=O)c1cc[n+]([O-])cc1)NCC12CC3CC(CC(C3)C1)C2,4.0%,1%,5,7%,-5,0%,-1.6
O=C(CSc1ccc(Cl)cc1)Nc1nnc(-c2ccco2)o1,-18%,6%,0,.,-7,7%,.
Cc1ccc(S(=O)(=O)CCC(=O)Nc2sccc2C(N)=O)cc1,.,?,.,.,-20,2%,.
CCOC(=O)N1CCN(C(=O)c2ccc(N3CC4CC(C3)c3cccc(=O)n3C4)c(NC(=O)c3ccc(F)cc3)c2)CC1 (stereo not given),0.1%,?,-4,19%,4,-9%,0.0
SMILES,ClpP mod,gsp agonist,TRPV1 potentiator,Sfp PPTase inh,CtBP-E1A inh,gsp antag,Menin MLL FP FL
CCN(CC)C(=O)CN1CCC(c2nc3cc(C)c(C)cc3[nH]2)CC1,-27%,3%[15.4 µM],-5,7%,-4,11%,4.9
Cc1ccccc1-n1nc(-c2ccc(N)cc2)cc1N,0.3%,30%,19,14µM*,0,-2%,3.4
COc1ccccc1CNC(=O)CCCNS(=O)(=O)c1cccc2nsnc12,0.8%,4%,-28,22%,1,6%,-3.1
Cc1ccc(-c2ccc(=O)n(CC(=O)NCCN3C(C)CCCC3C)n2)cc1 (stereo not given),-21%,-45%[inhibitor],-2,11%,5,3%,3.9
CC(C)N(Cc1ccccc1)C(=O)COC(=O)c1cnc(Cl)c(Cl)c1,-0.7%,9%,.,.,-23,-27%,.
COc1ccc(CCNC(=O)c2oc3ccc(S(=O)(=O)N4CCOCC4)cc3c2C)cc1OC,-1.8%,-21%,10,12%,-5,-8%,2.7
COC(=O)[C@@]1(Cc2ccc(F)cc2)[C@H]2c3cc(C(=O)N4CCCC4)n(Cc4ccc(Cl)c(C(F)(F)F)c4)c3C[C@H]2CN1C(=O)c1ccccc1,-1.0%,.,.,10%,-3,.,11
O=C(CSC1=NCCS1)N1CCCC1,-0.5%,-22%,26,9%,5,11%,0.3
COC(=O)C1=C(C)NC(c2c(O)ccc3ccccc23)C(C(=O)OC)=C1C (stereo not given),-2.5%,15%[15.4 µM],-6,5%,-5,-1%,-0.5
c1ccc(C[C@H]2CNCCN2CCC23CC4CC(CC(C4)C2)C3)cc1,-1.1%,.,?,.,-25,6%,.
COC(=O)c1cncn1Cc1ccccc1,.,4%,.,.,6,5%,.
CCOC(=O)N1CCN(C(=O)c2ccc(N3CCCC3=O)cc2)CC1,2.0%,18%,-6,6%,-3,-7%,0.9
Cc1[nH]ncc1-c1ccccc1Cl,0.2%,2%,17,10%,.,17%,5.5
COc1cc(C2NC(=O)C(C#N)=C(S)N2c2ccccc2)ccc1OC(C)C (stereo not given),-4.6%,0%,3,40µM*,-1,0%,-0.9
CCOC(=O)C[C@H]1c2cc(F)ccc2S(=O)(=O)N1Cc1ccc(OC)cc1,-1.5%&0.9%,.,.,.,11,-3%,.
OC1(c2cccc(C(F)(F)F)c2)CCN(c2ncnc3c2[nH]c2ccccc23)CC1,?,-20%,2,16%,-4,?,0.1
CCOc1ccccc1OCCC(=O)NNC(=O)Cn1nc(C)cc1C,.,7%[15.4 µM],?,.,4,7%,.

# Bioassay records deposited in PubChem by National Center for Advancing Translational Sciences (NCATS).

# Rows are unselected; 5.3% or so of the library scored in one or more.
